NPYLR7 ag: agonists of mosquito NPYLR7 receptor, primary screen, cell-based, Aedes aegypti, calcium fluorescence, mosquito biting behavior. activation, % at 10 µM. AID 1259423, 2018. 0.15% of 270,000 active. Aedes aegypti neuropeptide Y-like receptor 7 (NPYLR7). HEK293T NPYLR7/Galpha15, GCaMP6s calcium fluorescence; in the data active = activation above about 40%;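 note: 0% = vehicle and 100% = reference agonist at the receptor; some compounds past the cut are filed as inactive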
NPYLR7 ag max-min: second read-out of NPYLR7 ag, no call of its own (marks repeat the call); activation, %; measured here: Max-Min RFU normalised activation; some inactives read as strong as hits;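 span of the calcium signal over five minutes; 0% = vehicle and 100% = native peptide agonist; compound fluorescence can raise it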
The depositor's hits bear a star; & = joins results of further samples. An excerpt, so the mix of outcomes need not match the whole.

Below each SMILES – NPYLR7 ag | NPYLR7 ag max-min
NC(=O)c1ccsc1NC(=O)CSc1nnc(Cc2cccs2)n1C1CC1
    5 | 3
Cc1cccc(C2CC(=O)CC(=O)C2)c1
    6 | 4
COc1cccc(CO[C@]2(C(=O)NCCN3CCOCC3)CC(OCc3cccc(F)c3F)[C@@H]3OC(C)(C)O[C@@H]3C2)c1 (some centres undefined)
    -9 | -16
C=C(C)COc1ccccc1C(=O)N[C@H]1C[C@H]2C(=O)NCC(=O)N2C1
    -4 | -9
COc1ccc(Oc2nc3c(C)cccn3c(=O)c2/C=C(\C#N)c2nc3ccccc3s2)cc1
    21 | 26
CC1Oc2ccccc2OC1C(=O)Nc1ccc(N(C)C)nc1 (centres undefined)
    0 | -2
O=c1[nH]nc(CCn2cccn2)n1CC1CCCCC1
    6 | 4
COc1ccc(C(=O)C2CCCN(Cc3nc(-c4ccc(F)cc4)cs3)C2)c(OC)c1 (centres undefined)
    4&-1 | 3&-2
O=C(c1ccccc1)C1CCN(C(=O)C2CCN(S(=O)(=O)c3ccc(F)cc3)CC2)CC1
    1 | 8
CCOC(=O)c1cn[nH]c1S(=O)(=O)Nc1ccccc1OCC
    3 | -3
CN(C)c1nc(-c2ccccc2)cc(-c2ccccc2)c1C#N
    8 | 3
CN(C)c1ccc(C2NCC(COc3ccccc3C#N)O2)cc1 (centres undefined)
    -6&1 | -6&0
CC(Oc1ccc(Cl)cc1Cl)C(=O)NCCn1nc(-c2cccs2)ccc1=O (centres undefined)
    2 | 0
CCN(CC(=O)NC(CC(C)C)C(=O)N(C)C)c1ccccc1 (centres undefined)
    0 | -2
Cc1nc2sc(C)c(C)n2c(=O)c1NC(=O)COc1ccc(Cl)cc1
    19 | 9
CS(=O)(=O)c1nc(-c2ccc(F)cc2)cc(C(F)(F)F)n1
    3 | 4
O=C(C1CCCOC1)N1CCc2c(F)ccc(F)c2C1 (centres undefined)
    -5 | -6
O=C(c1ccc(=O)[nH]n1)N1CCN(S(=O)(=O)c2ccc(Br)s2)CC1
    2 | 4
Cc1n[nH]c(C)c1CN(C)C(=O)CC(c1cccc(O)c1)c1ccccc1Cl (centres undefined)
    8 | 1
CCOC(=O)C1(Cc2ccccc2)CCN(Cc2nccn2-c2cccc(C)c2)CC1
    3 | -4

Fetched by structure from the list above, 6 records:
Below each SMILES – NPYLR7 ag | NPYLR7 ag max-min
COc1cccc(CO[C@]2(C(=O)NCCN3CCOCC3)CC(OCc3cccc(F)c3F)[C@@H]3OC(C)(C)O[C@@H]3C2)c1 (some centres undefined)
    -9 | -16
O=C(C1CCCOC1)N1CCc2c(F)ccc(F)c2C1 (centres undefined)
    -5 | -6
NC(=O)c1ccsc1NC(=O)CSc1nnc(Cc2cccs2)n1C1CC1
    5 | 3
O=C(c1ccc(=O)[nH]n1)N1CCN(S(=O)(=O)c2ccc(Br)s2)CC1
    2 | 4
CCOC(=O)C1(Cc2ccccc2)CCN(Cc2nccn2-c2cccc(C)c2)CC1
    3 | -4
O=C(c1ccccc1)C1CCN(C(=O)C2CCN(S(=O)(=O)c3ccc(F)cc3)CC2)CC1
    1 | 8

Continued.
Below each SMILES – NPYLR7 ag | NPYLR7 ag max-min
CC(C)(C)c1cnc(C(=O)NCC(O)CN2CCCC2)o1 (centres undefined)
    6 | 4
O=C(NCCc1ccc(Cl)cc1Cl)c1csc(CSc2nnc(-c3cccnc3)n2-c2ccccc2F)n1
    13 | 8
Cc1ccsc1C(=O)N1CCC(N2CCC(C(=O)NCc3ccccn3)CC2)CC1
    8&1 | 5&-2
CC(C(=O)NC(=O)NC12CC3CC(CC(C3)C1)C2)N1CCCC1c1cccs1 (centres undefined)
    0 | -2
O=C(NCCN1CCCCC1)c1ccc(CSc2nc(Cl)cc(N3CCCC3)n2)cc1
    5 | 12
Cn1c(C(F)(F)F)nn(CN2CCN(c3cccc(C(F)(F)F)c3)CC2)c1=S
    5 | 3
COc1cc2c(cc1CN1CCC3(CC1)CNC(=O)C3)OCCO2
    0 | 1
Cc1ccc(NC(=O)C2(C)CCN2Cc2ccccc2OC(F)F)cc1 (centres undefined)
    8 | 1
C#CCN1CCC(C(=O)NCC(C)(C)NC(C)c2ccccc2)CC1 (centres undefined)
    -6 | -6
CC(O)c1ccccc1NC(=O)C(C)N1CCN(c2ccccn2)CC1 (centres undefined)
    3 | 0
CC1CCCCC1N=C1NC(C)(C)CS1 (centres undefined)
    -5 | -10
CNc1cnn(C2CCCCC2)c(=O)c1Cl
    11 | 8
CCCOc1ccc(-c2c(=O)n(OCc3ccccc3Br)c3ccccc3[n+]2[O-])cc1
    0 | -9
CN(C)c1nc2c(c(NCC3(COc4ccccc4)CC3)n1)CCNC2
    -2 | -5
COc1cc(C(=O)NCCc2cc3c(C)ccc(C)c3[nH]c2=O)cc(OC)c1OC
    1 | 33
CCN(Cc1ccncc1)C(=O)c1c2n(c(C)cc1=O)-c1ccccc1SC(c1cccs1)C2 (centres undefined)
    28 | 22
COc1ccc(CCc2nnc(CCC(=O)NC(C)c3ccc(Cl)cc3)o2)cc1 (centres undefined)
    -2 | -5
Cc1ccnc(SCC(=O)NCCCOc2cccc([N+](=O)[O-])c2)n1
    19 | 10
O=C(CCC1CCN(C(=O)C2CC=CCC2)CC1)N1CCN(c2ccccc2)CC1 (centres undefined)
    1 | -5
COc1ccc(C(=O)Nn2cnc3c(cnn3-c3ccccc3)c2=O)cc1OC
    2 | -1
O=C(CC(c1ccc2c(c1)OCO2)c1c[nH]c2ccccc12)NCCc1ccc(Cl)cc1Cl (centres undefined)
    1 | 11
Cc1cc2cc(CNC(=O)NC3CC(=O)N(c4ccc(C)c(C)c4)C3)ccc2[nH]1 (centres undefined)
    12 | 9
C=CCNC(=S)NN=C1C=C(C)CC(C)(C)C1
    -4 | -2
CC1C(=O)N(c2ccc(F)cc2F)CCN1C(=O)c1cccc(Br)c1 (centres undefined)
    -2 | 7
CN(Cc1n[nH]c2c1CCCC2)C(=O)c1cn(CC2CCCCC2)nn1
    12 | 9
Cc1cc(C)c(C(N)=O)cn1
    -5 | 0
COC(=O)c1ccc(COC(CN2CCN(C(=O)c3ccoc3)CC2)c2cccc(OC)c2)cc1 (centres undefined)
    -10 | -6
Cc1nc2ncc3c(=O)n(C(C)C)ccc3n2n1
    0 | 0
O=C(NCc1scnc1-c1ccccc1)c1cn(CCN2CCCCC2)nn1
    0 | -5
CNCC(=O)NCCc1nc(-c2ccccc2)cs1
    -6 | -8
COc1cc(/C=N\Nc2nc(N3CCOCC3)nc(N3CCOCC3)n2)cc(OC)c1O
    -15 | -20
COc1ccc(C(CC(=O)Nc2ccc(F)c(F)c2F)NC(C)=O)cc1 (centres undefined)
    2 | 0
O=C(c1cccc2c1NCCC2)N1CCOC(C(F)(F)F)C1 (centres undefined)
    3 | 0
CCCc1nnc(-c2cc3ccccc3n2CCC(C)C)o1
    13 | 8
CN(Cc1ccccc1F)C(=O)CN1CCN(c2ccccn2)CC1
    6 | -2
CSc1ccc(COc2coc(CN3CCCN(C(=O)c4ccc(NC(C)=O)cc4)CC3)cc2=O)cc1
    29 | 15
Clc1ccc(OCc2cn3ccccc3n2)cc1
    8 | 4
O=C(Nc1nc(-c2ccc3c(c2)OCO3)cs1)c1ccccc1
    12 | 12
COc1ccc(-c2noc(CSc3nnnn3C3CCCC3)n2)cc1OC
    9 | 11
O=C(c1c(F)cccc1F)N1CCc2ccccc2C1c1ccccc1F (centres undefined)
    8 | 3

Laid out differently: two of the compounds above
SMILES	NPYLR7 ag	NPYLR7 ag max-min
O=C(NCc1scnc1-c1ccccc1)c1cn(CCN2CCCCC2)nn1	0	-5
CNCC(=O)NCCc1nc(-c2ccccc2)cs1	-6	-8

Next part
Below each SMILES – NPYLR7 ag | NPYLR7 ag max-min
O=C(c1ccco1)N1N=C(c2ccco2)CC1c1ccc2nccnc2c1 (centres undefined)
    3 | 0
COc1ccc(Cc2nc3c(c(N4CCOCC4)n2)CN(C(=O)c2cccc(Br)c2)CC3)cc1
    -5 | -1
CCOC(=O)c1cnn(Cc2cc(C)no2)c1C(F)F
    2 | 1
CN1CCC(Cn2ccnc2-c2ccccc2C(=O)O)(c2ccccc2)CC1
    15 | 4
Cc1ccc2occ(C3N[C@H](C(=O)O)CS3)c(=O)c2c1 (some centres undefined)
    -9 | -13
N[C@@H](Cc1ccc(O)cc1)C(=O)NCc1cccnc1Oc1ccccc1F
    8 | 4
C=Cc1cccc(CN(C)Cc2cnn(C)c2C)c1
    12 | 9
CCCNC(=O)C(NC(=O)CC(C)C)C1CCN(C(=O)c2cccc(Br)c2)CC1 (centres undefined)
    17 | 19
CC(C)n1c(=O)c(C(=O)N2CCC(n3c(=O)[nH]c4ccccc43)CC2)cc2cccnc21
    -11 | -15
O=C(CCC(F)(F)F)NC1CCCN(C2CCCCCC2)C1 (centres undefined)
    6 | 3
CCn1cc(NC(=O)NCCc2c[nH]c3ccccc23)c2ccccc21
    26 | 19
CCc1ccc(CN(C)C(=O)c2ccc(-c3ccn[nH]3)cc2)nc1
    -2 | -4
Cc1cccc(OCC(=O)ON=C(N)Cc2ccc(Cl)c(Cl)c2)c1C
    0 | 0
O=C(NCCN1CCCC1)C1(c2ccc(F)cc2)CCOCC1
    1 | 1
COc1cc(C2Oc3ccccc3C=C2[N+](=O)[O-])ccc1OCc1ccccc1 (centres undefined)
    -3 | -4
COc1ccc(CCN(Cc2ccc(C)o2)C(=O)CN(CCN2CCCC2)S(=O)(=O)c2ccc(C)cc2)cc1OC
    -5 | 8
O=C(CN1C(=O)c2ccccc2C1=O)Nc1ccc(F)cc1
    -9 | -6
CCOC(=O)c1cc(-c2cccc(OC)c2)n(-c2ccc(C(=O)NCCc3cccs3)cc2)n1
    5 | 1
O=C(c1ccc(Cl)cc1)c1c(O)cc(-c2ccc(Cl)cc2)oc1=O
    8 | 7
CN(Cc1ccc2nsnc2c1)Cc1cnn2cccnc12
    11 | 12
CC(C)SCC(=O)N1CCc2c(nc(-c3ccccc3)nc2N(C)C)C1
    6 | 1
CSc1ccc(COc2coc(CN3CCN(C(=O)c4c(Cl)cccc4Cl)CC3)cc2=O)cc1
    24 | 9
Cc1ccccc1-c1cn[nH]c1C1CCN(C(=O)c2n[nH]c3c2CCC3)CC1
    1 | -3
COCCn1c(=O)c2c(nc3n(C(C)c4ccccc4)c(C)c(C)n23)n(C)c1=O (centres undefined)
    -6 | -7
FC(F)(F)c1cccc(NC(=S)NCc2cccc3c2OCO3)c1
    5 | 2
O=C(NCc1cccc(C(F)(F)F)c1)c1ccc(CSc2nnc(-c3ccco3)n2-c2cccc(Cl)c2)cc1
    16 | 19
Oc1oc(-c2cccc3ccccc23)nc1C=Nc1ccc(Cl)cc1Cl
    3 | -2
Cc1c(C(=O)NCCC#N)sc(=O)n1CCc1ccccc1
    12 | 6
CCc1nnc2n1N=C(c1ccc(Cl)cc1)C(CC(=O)O)S2 (centres undefined)
    3 | -1
CC(C(=O)NCCc1ccc(F)cc1)N1CCCCCC1 (centres undefined)
    9 | 7
CCOC(=O)CCCC(=O)N1CCN(c2ncccc2C(=O)NCCc2ccc(OC)c(OC)c2)CC1
    28 | 17
O=C(NNC(=O)C(c1cccc(Br)c1)N1CCCC1)c1ccccc1F (centres undefined)
    0 | -2
CC(C)CC(=O)N1CCN(Cc2cccc(-c3noc(-c4ccccc4)n3)c2)CC1
    6 | 4
O=C1NC(=O)C(=Cc2cccc(I)c2)C(=O)N1
    11 | 8
O=C(c1ccno1)N(CCN1CCOCC1)c1nc2ccc(F)cc2s1
    0 | 26
COC(=O)c1sc(N)c(C(=O)OC)c1CSc1nnc(Cc2csc(C)n2)o1
    7 | 6
C/C(=C\C(=O)ONC(=O)c1ccccc1)NCc1ccccc1
    -15 | -23
COc1ccc(C2CCCCN2S(=O)(=O)NCc2ccccc2)cc1 (centres undefined)
    -1 | 8
COc1ccccc1C(=O)N(CC1CCN(Cc2ccccc2F)CC1)CC1CCCO1 (centres undefined)
    15 | 9
C=CCOC(=O)c1cc(-c2ccc(/C=C3/C(=O)N(c4cccc(Cl)c4)N=C3C)o2)ccc1Cl
    10 | 15

One compound at a time (already shown). Values in the order: NPYLR7 ag, NPYLR7 ag max-min
`O=C(NNC(=O)C(c1cccc(Br)c1)N1CCCC1)c1ccccc1F` (centres undefined) is entered as 0, -2
`CSc1ccc(COc2coc(CN3CCN(C(=O)c4c(Cl)cccc4Cl)CC3)cc2=O)cc1` is entered as 24, 9

Remaining list, next part
Below each SMILES – NPYLR7 ag | NPYLR7 ag max-min
O=C(CCc1cccnc1)N1CCOC(COc2ccc(F)cc2)C1 (centres undefined)
    9 | 8
Cc1ccccc1OCC(O)CNC(Cc1ccccc1)c1nc(-c2ccc([N+](=O)[O-])cc2)no1 (centres undefined)
    -1 | 4
Cn1nc(CC2CCN(C(=O)N3CCCC3)CC2)n(-c2ccccc2)c1=O
    4 | 3
O=C(O)/C=C1\CC(=O)OC1(O)CCC(=O)O (centres undefined)
    -4 | -8
COc1cc(C(=O)N(C)Cc2snnc2C)nc(OC)n1
    4 | -1
CC1=NN(c2ccc(C(=O)N3CCC(N(C)S(C)(=O)=O)CC3)cc2)CC1
    -4 | -5
COc1ccc(OC2CCN(C3CCCC3)CC2)c(C(=O)N[C@H]2CCCCNC2=O)c1
    1 | -3
COc1ccccc1CCNC(=O)c1cncn1-c1ccc(-c2ccc(F)c(F)c2)cc1
    3 | 2
CCOc1ccc(CN2CCC(N3CCC(C(=O)NC(C)C)CC3)CC2)cc1
    6&2 | 1&-1
CCOC(=O)C1=C(CN(C)Cc2ccc3c(c2)OCO3)NC(=O)NC1C (centres undefined)
    1 | 12
CC(C)Oc1ccc2c(=O)cc(-c3ccccc3)oc2c1
    8 | 1
O=C1NC2(CCN(Cc3ccccn3)CC2)Nc2cc(Cl)ccc21
    0 | 11
Cc1noc(C)c1S(=O)(=O)NC(C)c1ccc2c(c1)OCCO2 (centres undefined)
    6 | 6
Cc1cc(C)c(C)c(OCc2nc(C(=O)NCc3ccc4c(c3)OCO4)cs2)c1
    24 | 25
N#Cc1ccc(CO/N=C2\CCN(C3CC3)C2)cc1
    0 | -7
O=C(c1cc(-c2ccccc2F)nn1-c1ccccc1Cl)N1CCN(c2cccc(C(F)(F)F)c2)CC1
    -6 | 1

Compound activity as filed in PubChem.
